Cruzain noTriton = cruzain (T. cruzi) inhibition without detergent | Potency, µM, inactives show max response, negative = inhibition, hits mostly inhibitors | 200,000 tested, 2.3% active | purified cruzain, Z-FR-AMC fluorescence, no detergent | AID 1476 | P25779;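 also: plate controls were enzyme without inhibitor for no effect and buffer without enzyme for full effect; nearly all actives have a fitted effect of over 40% in size; top concentration of the series not given in the record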
Target sequence (P25779 123-467 limits assumed): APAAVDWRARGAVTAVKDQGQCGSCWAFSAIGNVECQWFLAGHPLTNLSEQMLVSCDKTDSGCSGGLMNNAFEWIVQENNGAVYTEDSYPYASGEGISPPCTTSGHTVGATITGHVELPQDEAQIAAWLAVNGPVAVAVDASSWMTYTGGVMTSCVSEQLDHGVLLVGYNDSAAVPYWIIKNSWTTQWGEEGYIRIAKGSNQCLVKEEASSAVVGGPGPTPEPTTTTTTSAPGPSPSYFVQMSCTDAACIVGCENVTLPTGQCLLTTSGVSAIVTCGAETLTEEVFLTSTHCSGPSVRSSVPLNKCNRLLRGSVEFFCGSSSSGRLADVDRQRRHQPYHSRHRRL
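Purified cruzain at 1.5 nM, pre-incubated 15 min with compound at room temperature in 100 mM sodium acetate pH 5.5, 5 mM DTT, 0.00005% Triton X-100. Reaction started with 2 uM Z-FR-AMC; AMC fluorescence increase over 60 s gives rate.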
SARS PLpro yeast = SARS-CoV PLP inhibition in yeast; S. cerevisiae expressing SARS-CoV PLpro, growth rescue; control for the full effect not named in the record; Potency, µM (top dose mostly 32.9 µM), inactives show top-dose activity, positive = growth rescue; 330,000 tested, 0.19% active; active means well fitted rising curve with a large enough effect; inconclusive means small, poorly fitted or top-dose-only effect; inactive means no such curve, though single readings can be large or run the other way; also: 0% is about no effect; nearly all actives have a fitted effect of over 55% in size; growth read by luminescence after 48 h
MARV entry inh = inhibitors of Marburg virus binding or cell entry | Marburg virus pseudotyped entry inhibition, cell reporter; control for the full effect not named in the record; about a third of the inactives were read at about 46 µM | Potency, µM (highest dose often 37.8 µM), for inactives: at the highest dose activity change, negative = inhibition, most hits filed as inhibitors | 300,000 tested, 1.8% active | AID 540276; active = well fitted inhibition curve with a large enough effect; inconclusive = small, poorly fitted or top-dose-only effect, or effect the other way; inactive = flat fitted curve, though single readings scatter; tested in HEK293 cells; about a fifth of its hits are not listed in these tables; also: % is scaled to controls: 0 for no effect and ±100 for the full control effect; luciferase read-out
Lassa entry inh = blocks Lassa virus binding to or entry into cells. Lassa virus pseudotype entry inhibition, cell reporter; control for the full effect not named in the record. Potency, µM (series often up to 37.9 µM), for inactives: at the top dose activity change, negative = inhibition, actives largely listed as inhibitors. 300,000 tested, 1.2% active. AID 540256; active means well fitted inhibition curve with a large enough effect; inconclusive means small, poorly fitted or top-dose-only effect, or effect the other way; inactive means flat fitted curve, though single readings scatter; tested in HEK293 cells; also: % is scaled to controls: 0 for no effect and ±100 for the full control effect; nearly all actives have a fitted effect of over 50% in size; luciferase read-out
Cruzain Triton = cruzain (T. cruzi) inhibition with detergent | purified cruzain, Z-FR-AMC fluorescence, 0.01% Triton | Potency, µM, for the others: max response, negative = inhibition, usual class: inhibitors | 200,000 tested, 0.43% active;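 also: plate controls were neutral wells for no effect and buffer without enzyme for full effect; nearly all actives have a fitted effect of over 40% in size; top concentration of the series not given in the record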
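Purified cruzain (1.5 nM final) was preincubated with compounds for 15 min at room temperature in 100 mM sodium acetate pH 5.5, 5 mM DTT, 0.01% Triton X-100. Reaction started with 2 uM Z-FR-AMC; AMC fluorescence change over 60 s gave activity.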
RE007 growth inh = less growth of the S. pombe RE007 Vpr strain; 360,000 tested, 0.21% active; Potency, µM (top dose mostly 92.2 µM), inactives show at the highest dose activity change, negative = less growth; AID 651644; S. pombe RE007 Vpr strain, BacTiter-Glo ATP luminescence, 24 h; control for the full effect not named in the record; active = well fitted falling curve with a large enough effect; inconclusive = small, poorly fitted or top-dose-only effect; inactive = no such curve, though single readings can be large or run the other way;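 also: % is scaled to controls: 0 for no effect and ±100 for the full control effect; nearly all actives have a fitted effect of over 50% in size; the assay follows cell death caused by Vpr and the record does not say whether a fall means rescue or toxicity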
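Fission yeast strain RE007, carrying one chromosomally integrated HIV-1 vpr copy, was seeded at OD 0.01 in PMG+AL medium with 23 nL pinned compound. After 24 h at 30 °C and 99% humidity, viability was read by BacTiter-Glo luminescence.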
NS1 function inh = inhibitors of influenza NS1 protein function. S. cerevisiae slowed by influenza A NS1, growth recovery by OD600. Potency, µM (highest dose often 46.1 µM), for inactives: top-dose activity, positive = more growth. 270,000 tested, 0.4% active. AID 2326; active means well fitted rising curve with a large enough effect; inconclusive means small, poorly fitted or top-dose-only effect; inactive means no such curve, though single readings can be large or run the other way; also: nearly all actives have a fitted effect of over 50% in size
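Compounds were scored for reversing the slow growth caused by influenza A NS1 in S. cerevisiae, measured by optical density at 600 nm. Assay medium contained 2% galactose at pH 6.0; NS1-free yeast of the same strain were the positive control.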
2A StopGo = FMDV 2A StopGo reporter, luciferase signal; human cells with a luciferase reporter of 2A StopGo recoding; control for the full effect not named in the record; Potency, µM (series often up to 57.9 µM), for the others: at the highest dose signal change, negative = less light; 410,000 tested, 1.2% active; active = well fitted falling curve with a large enough effect; inconclusive = small, poorly fitted or top-dose-only effect; inactive = no such curve, though single readings can be large or run the other way; tested in HEK293T cells; also: % is scaled to controls: 0 for no effect and ±100 for the full control effect; nearly all actives have a fitted effect of over 45% in size; luciferase light after 4 h
* hit, by the source's call; ? = inconclusive; nt = no result given; & = joins results of further samples; [ ] = dose if it differs, or a comment. Unless noted, calls follow the shape of the dose curve; as a rule, active = well fitted curve in the direction sought with a large enough effect; inconclusive = small, poorly fitted or top-dose-only effect, or another doubt; inactive = no such curve, though single readings can be large; an effect the other way counts as inactive or inconclusive. Potency is read from the fitted curve at half-maximal effect.

canonical_smiles	Cruzain noTriton	SARS PLpro yeast	MARV entry inh	Lassa entry inh	Cruzain Triton	RE007 growth inh	NS1 function inh	2A StopGo
CCCCCCN=C(C)c1c(O)n(Cc2ccccc2)c(=O)[nH]c1=O	-3%	7%	11%	-24%	-5.1%	15%	3%	-8%
COc1ccc(C(=O)NC(=S)Nc2ccc(Cl)c(C(=O)O)c2)cc1	nt	1%	-4%	-18%[46.1 µM]	nt	-8%	nt	-3%
COc1ccc(C(=O)N2CCN(c3ccccn3)CC2)cc1[N+](=O)[O-]	nt	0%	-14%[46.1 µM]	-13%	nt	-1%	6%	-28%
Oc1ccc(N2CCN(Cc3nc4ccccc4[nH]3)CC2)cc1	nt	4%	4%[46.1 µM]	-17%[46.1 µM]	nt	-8%	-9%	6%
O=S(=O)(CCc1nnc(-c2ccc(Br)cc2)o1)c1ccc(Cl)cc1	0%	-18%	26%	4%	-5.3%	0%	-8%	-18%
Clc1ccccc1Cc1noc(CN2CCN(Cc3ccccn3)CC2)n1	nt	1%	12%[46.1 µM]	-2%	nt	-2%	4%	9%
COCCCNc1nnc(Cc2ccccc2)c2ccccc12	nt	-2%	?	-26%[46.1 µM]	nt	2%	-2%	6%
COc1ccc(OCC(=O)Nc2nnc(S(=O)(=O)N3CCc4ccccc43)s2)cc1	1%	nt	nt	3%[46.1 µM]	0.0%	nt	nt	-13%
CCOC(=O)c1cn2nc(Oc3ccc(NC(C)=O)cc3)ccc2n1	nt	0%	?	20%[46.1 µM]	nt	-7%	1%	52%[activator]
Cc1cc(-c2c(C)[nH]n(-c3ccc(Cl)cc3)c2=O)n(-c2ccc(Cl)cc2)n1	?	2%	6%	2%	-6.3%	26%	12%	-27%
O=C(c1cccs1)N(Cc1cccnc1)c1nc2ccc(F)cc2s1	-1%	nt	nt	-27%[46.1 µM]	-1.9%	nt	nt	?
N#Cc1c(N)nc(N2CCCC2)c(C#N)c1-c1ccc(Cl)cc1	-23%	2%	-6%	?	-16%	-7%	-3%	-3%
CCCCn1nc(C(=O)N2CCc3ccccc32)c2ccccc2c1=O	-9%	3%	-15%	-8%	-3.9%	5%	-78%	?
Cc1ccc(NC(=O)COC(=O)/C=C/c2cccc(Cl)c2)cc1S(=O)(=O)N1CCOCC1	2%	13%	?	18%	-10%	7%	?	-6%
CNS(=O)(=O)c1cccc(C(=O)OCC(=O)Nc2ccc(N3CCCCC3)cc2)c1	nt	-4%	nt	nt	nt	-3%	6%	23%
CCOC(=O)c1cnn(-c2cc(Oc3ccccc3C)ncn2)c1N	0%	2%	16%	1%	-1.9%	-20%	-1%	-6%
Cn1c(CCN2CCCCC2)nc2cc(NC(=O)COc3ccccc3)ccc21	nt	3%	nt	nt	nt	5%	6%	-8%
COc1ccc(S(=O)(=O)N2CC(O)C[C@H]2C(=O)OCC(=O)N2CCCCCC2)cc1 (some centres undefined)	nt	0%	9%[46.1 µM]	6%[46.1 µM]	nt	2%	nt	13%
Cc1ccc(S(=O)(=O)N2CCOCC2)cc1NC(=O)COC(=O)c1n[nH]c(=O)c2ccccc12	nt	2%	5%	-4%	nt	-4%	nt	-17%
COc1ccc(NS(=O)(=O)c2cc(NC(=O)CCNC(=O)c3ccco3)ccc2OC)cc1	nt	-7%	-1%	-7%	nt	-27%	nt	60%[activator]
N#Cc1cccc(NC(=O)Cn2cnc(S(=O)(=O)N3CCCC3)c2)c1	nt	2%	nt	nt	nt	9%	-5%	13%
CSc1ncccc1C(=O)Nc1nc(C(C)(C)C)cs1	nt	-3%	14%[46.1 µM]	nt	nt	3%	1%	22%
Cc1cc(NC(=O)c2cc3cccc([N+](=O)[O-])c3[nH]2)ccc1F	nt	-9%	nt	nt	nt	-1%	6%	6%
COc1ccc(CN2CCN(C(=O)CC(C)C)CC2)cc1Br	nt	-7%	nt	nt	nt	-5%	-17%	-22%

As a short view, part of the list above:
canonical_smiles	Cruzain noTriton	SARS PLpro yeast	MARV entry inh	Lassa entry inh	Cruzain Triton	RE007 growth inh	NS1 function inh	2A StopGo
Cc1ccc(S(=O)(=O)N2CCOCC2)cc1NC(=O)COC(=O)c1n[nH]c(=O)c2ccccc12	nt	2%	5%	-4%	nt	-4%	nt	-17%
COc1ccc(NS(=O)(=O)c2cc(NC(=O)CCNC(=O)c3ccco3)ccc2OC)cc1	nt	-7%	-1%	-7%	nt	-27%	nt	60%[activator]
N#Cc1cccc(NC(=O)Cn2cnc(S(=O)(=O)N3CCCC3)c2)c1	nt	2%	nt	nt	nt	9%	-5%	13%
CSc1ncccc1C(=O)Nc1nc(C(C)(C)C)cs1	nt	-3%	14%[46.1 µM]	nt	nt	3%	1%	22%
Cc1cc(NC(=O)c2cc3cccc([N+](=O)[O-])c3[nH]2)ccc1F	nt	-9%	nt	nt	nt	-1%	6%	6%
COc1ccc(CN2CCN(C(=O)CC(C)C)CC2)cc1Br	nt	-7%	nt	nt	nt	-5%	-17%	-22%

Continued:
canonical_smiles	Cruzain noTriton	SARS PLpro yeast	MARV entry inh	Lassa entry inh	Cruzain Triton	RE007 growth inh	NS1 function inh	2A StopGo
CC1=C(C(=O)OC2CCCCCC2)C(c2cccc(Cl)c2)CC(=O)N1 (centres undefined)	-12%	nt	?	10%[46.1 µM]	-0.1%	nt	nt	-13%
CCOC(=O)NC(O)C(=O)c1cccs1 (centres undefined)	1%	-9%	-9%	0%	1.2%	-7%	0%	-3%
COc1ccc(-n2c(SCC(=O)NCc3ccco3)nc3c([nH]c4ccccc43)c2=O)cc1	-18%&0%	2%	-6%	-11%[46.1 µM]	-2.1%&2.0%	-11%	16%	-20%&-23%
CCc1cc(=O)oc2c(C)c(OS(C)(=O)=O)ccc12	nt	nt	2%[46.1 µM]	5%	nt	-7%	nt	-9%
O=C(c1cccs1)c1cn(CC(=O)N2CCc3ccccc3C2)c2ccccc12	?	4%	?	-26%	-0.5%	9%	-51%	-10%
Cc1ccc(-c2nc(N)n(S(=O)(=O)c3ccc(C)cc3)n2)cc1	nt	1%	19%[46.1 µM]	?	nt	5%	-2%	-5%
O=c1cc(CN2CCN(S(=O)(=O)c3cccc(Cl)c3)CC2)c2ccc(O)cc2o1	nt	-2%	?	-26%	nt	2%	nt	-24%
Cc1ccc(Oc2nc(-c3ccccn3)nc3ccccc23)cc1	nt	-6%	9%[14.2 µM]	13%	nt	27%	-69%	-22%
CC(=O)Nc1ccc(S(=O)(=O)N2c3ccccc3NC(=O)CC2C)c(Cl)c1 (centres undefined)	nt	-2%	-3%[46.1 µM]	-3%	nt	0%	-2%	1%
CCOC(=O)C1=C(N)Oc2cc(O)ccc2C1c1cccc([N+](=O)[O-])c1 (centres undefined)	nt	-4%	?	?	nt	3%	-1%	20µM*
Cc1ccc2nc3c(cc(C(=O)NCCCn4ccnc4)n3C)c(=O)n2c1	?	4%	0%	-8%	?	-1%	-12%	23%
Cc1ccc(SCC(=O)c2ccc(CC(=O)O)s2)cc1	nt	1%	17%[46.1 µM]	?	nt	-2%	7%	17%
CC(C)n1nnnc1SCC(=O)N(C)C1CCS(=O)(=O)C1 (centres undefined)	nt	13%	?	3%[46.1 µM]	nt	-14%	nt	29%
CCCNC(=S)N(Cc1ccccc1)Cc1nc2ccccc2c(=O)[nH]1	-10%	7%	-6%	-23%	-6.9%	-8%	-4%	0%
COC(=O)c1c(NC(=O)CSc2nnc(CNc3ccc(Cl)cc3)o2)sc(C)c1C	1%	0%	-12%	-9%	-10%	15%	2%	?
CCOC(=O)c1cc2c(=O)n3cccc(C)c3nc2n(CC(C)C)c1=NC(=O)c1ccco1	nt	1%	-11%[46.1 µM]	3%[46.1 µM]	nt	-14%	2%	-10%
COC(=O)C1=C(C)OC(N)=C(C#N)C1c1ccco1 (centres undefined)	-10%	13%	8%	14%	-2.9%	7%	3%	-8%
O=C1C2C3C=CC(C3)C2C(=O)N1CCCCN1C(=O)C2C3C=CC(C3)C2C1=O (centres undefined)	3%	9%	20%	7%	2.3%	-7%	-4%	0%
O=C(CNS(=O)(=O)c1ccccc1)NCC(=O)OCc1ccccc1F	-9%	12%	8%	16%	-12%	nt	6%	-16%
N#Cc1ccccc1NC(=O)CSc1n[nH]c(=O)n1C1CC1	nt	3%	0%[46.1 µM]	-9%[46.1 µM]	nt	-3%	nt	-3%
Cc1ccc(C)c(Nc2nn3c(=O)c4ccc(C(=O)NCc5ccccc5)cc4nc3s2)c1	5%	nt	nt	0%[46.1 µM]	-1.4%	nt	nt	0%
CCN(CC)S(=O)(=O)c1cc(C(=O)OCC(=O)NC(=O)c2cccn2C)ccc1C	6%	3%	?	-11%	-3.2%	0%	4%	-13%
COc1ccc(C(=O)NCCCNC(=O)c2cnccn2)cc1	nt	0%	11%[46.1 µM]	7%[46.1 µM]	nt	4%	-1%	-11%
CN(/C=C/c1c([N+](=O)[O-])c(=O)n(C)c(=O)n1C)c1ccccc1	nt	2%	-16%[46.1 µM]	-2%	nt	1%	-3%	-6%
Cc1ccc(NC(=O)Nc2nc3c(s2)CCCCCC3)cc1C	-2%	nt	nt	3%[46.1 µM]	-1.5%	nt	nt	22%
COc1ccc(NC(=O)Nc2ccc([N+](=O)[O-])cc2)cn1	nt	11%	0%[46.1 µM]	5%	nt	-8%	6%	-5%
NC(=S)N1CCCc2ccccc21	nt	1%	nt	nt	nt	3%	?	-9%
COc1ccc(C2=NN(c3nc4ccccc4s3)C(=O)/C2=C\N(C)C)cc1	?	-2%	2%	4%	-6.3%	-15%	15%	?

High-throughput results deposited in PubChem BioAssay by National Center for Advancing Translational Sciences (NCATS).

Compounds were not picked by outcome; any-hit rate near 4.7%.
